Mtb growth = Mycobacterium tuberculosis H37Rv growth inhibition, cell based, confirmatory dose response (AID 1949); inhibition, % at 10 µg/mL; hits with a dose series show IC50 in µg/mL; most inactive calls were filed without a number and no value below 0 was filed; hit rate 1.6% among 100,000;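 active = confirmed in a dose series; inconclusive = about 50% or more but not retested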;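 note: bacteria grown 7 days with compound before Alamar blue readout; 0% = untreated bacteria and 100% = reference antibiotic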
The depositor's hits bear a star; i = inactive; ? = inconclusive. Not all compounds are listed; rates above refer to the full screens.

Preview (two entries):
molecule,Mtb growth
CCC(=O)NC(c1ccccc1Cl)c1cc([N+](=O)[O-])c2cccnc2c1O (stereo not given),i
Cc1ccc(N2C(=O)C3C4c5ccccc5C(c5ccccc54)C3C2=O)cc1 (stereo not given),i

Main list, from the start:
molecule,Mtb growth
CCC(=O)NC(c1ccccc1Cl)c1cc([N+](=O)[O-])c2cccnc2c1O (stereo not given),i
Cc1ccc(N2C(=O)C3C4c5ccccc5C(c5ccccc54)C3C2=O)cc1 (stereo not given),i
CC1CCCN(S(=O)(=O)c2ccc(C3CCCCC3)cc2)C1 (stereo not given),5%
CC(C(=O)NC1CCCCCC1)N(c1ccccc1)S(C)(=O)=O (stereo not given),i
Cc1sc(NC(=O)C(Sc2ccccc2)c2ccccc2)c(C(N)=O)c1C (stereo not given),i
O=C(CCCOc1ccccc1)NC(=S)Nc1ccccc1,i
CCC(=O)Nc1ccc(OCc2nc3ccccc3s2)cc1,i
COc1ccc(-c2nn(-c3ccccc3)cc2C(=O)n2nnc3ccccc32)cc1,1%
Cc1ccc(N(CC(=O)N2CCC(C(N)=O)CC2)S(=O)(=O)c2ccccc2)cc1C,i
CCCCc1ccc(NC(=O)OC)cc1,i
O=C(COc1ccc2ccccc2c1Br)N1CCN(c2cccc(Cl)c2)CC1,i
Nc1nncn1C(=O)c1ccccc1Cl,i
COCCNC(=O)c1ccccc1NC(=O)c1ccc(-c2ccccc2)cc1,24%
Cc1ccc(C(=O)Nc2ccc(NC(=O)Cc3ccccc3)cc2)c(C)c1,i
Cc1ccc2nc(-c3ccc(NC(=O)c4c(F)c(F)c(F)c(F)c4F)cc3)sc2c1,2%
COc1ccc(C2C(Oc3ccccc3)C(=O)N2c2ccc(C)c(Cl)c2)cc1OC (stereo not given),i
O=C(Cc1cccs1)Nc1cc(C(=O)O)cc(C(=O)O)c1,i
O=C1NN(c2ccc(F)cc2)C(=O)/C1=C\c1ccc(OC(=O)c2cccs2)cc1,15%
Cc1ccc(-c2nc3cc(Cl)cc(Cl)c3o2)cc1NC(=O)c1ccccc1Cl,1%
CC(=O)N1CCN(Cc2nc3cc(NC(=O)c4ccco4)ccc3n2C)CC1,5%
CCn1cc(C(=O)O)c(=O)c2cc(F)c(N3CCN(C(=S)NC4CC5C=CC4C5)CC3)cc21 (stereo not given),i
Cn1c(=O)c2c(ncn2CC(=O)NCCc2ccccc2)n(C)c1=O,i
CCOC(=O)CN1C(=O)c2ccccc2S1(=O)=O,i
COC(=O)C1=C(C)NC(=O)NC1c1cn(-c2ccccc2)nc1-c1ccc(OC)c(Cl)c1 (stereo not given),i
CCOC(=O)COc1cc2oc(C)c(-c3nc4ccccc4s3)c(=O)c2cc1CC,i
CCOc1cccc(C(=O)N2CCN(c3ccc([N+](=O)[O-])c(N4CCc5ccccc5C4)c3)CC2)c1,4%
COc1ccc(S(=O)(=O)N(CC(=O)Nc2ccccc2C(N)=O)c2cc(C)cc(C)c2)cc1OC,i
CCn1c(SCC(=O)Nc2cccc(Cl)c2)nnc1-c1ccc(Cl)cc1Cl,i
COC(=O)NC1CCCCC1NC(=O)OC (stereo not given),i
CC1=C(C(=O)Nc2cc(C(F)(F)F)ccc2Cl)C(c2ccco2)C(C#N)=C(SCC(N)=O)N1 (stereo not given),i
O=C(Nc1cccc(F)c1)c1ccc([N+](=O)[O-])cc1,?
COc1ccc(NC(=O)CN(c2ccc3c(c2)OCCO3)S(=O)(=O)c2ccccc2)cc1Cl,i
C=CCNC(=S)Nc1sc2c(c1C#N)CCCC2,i
Cc1cccc(C)c1NC(=O)CSc1nnc(-c2cccnc2)n1Cc1ccccc1,i
CC(=O)Nc1nc2c(c3c1c(=O)oc1ccccc13)CC(C(C)(C)C)CC2 (stereo not given),i
C=CCNC(=O)c1ccccc1NC(=O)CN(c1cccc(C(F)(F)F)c1)S(C)(=O)=O,i
COc1cc(C)c(S(=O)(=O)Nc2cccc(C(=O)O)c2)cc1C,i
NC(=O)c1sc2nc3c(c(-c4ccco4)c2c1N)CCC3,i
CCc1sc(C(=O)NCc2ccc(S(N)(=O)=O)cc2)cc1Br,i
NC(=O)c1c(NC(=O)CCC2CCCC2)sc2c1CCCCC2,i
Cc1ccc(CN2CCN(C(=O)c3csc(C)c3)CC2)cc1,i
CCN1C(=O)/C(=C\c2cn(Cc3ccccc3)c3ccccc23)C(=O)NC1=S,i
C=CCn1c(SCC(=O)O)nc2sc(C)c(C)c2c1=O,2%
COc1ccccc1CNC(=S)NC1CCCC1,i
COC(=O)c1c(C)oc2ccc(OCC=C(C)C)cc12,i
O=C(O)CC(NCc1ccccc1)C(=O)Nc1cccc(F)c1 (stereo not given),i
CCOc1ccc(N2CC(C(=O)Nc3cccc(C)n3)CC2=O)cc1 (stereo not given),i
NS(=O)(=O)c1ccc(NC(=O)Nc2ccc(Cl)cc2Cl)cc1,i
Cc1onc(-c2ccccc2Cl)c1C(=O)NC(=S)NCC(=O)c1ccccc1,i
O=C1NC(=O)C(CCc2ccncc2)(C(c2ccccc2)c2ccccc2)C(=O)N1,i
CCNC(=O)c1c(NC(=O)COc2ccc(Cl)cc2Cl)sc2c1CCCC2,i
CCc1ccc(CN2CCN(C(=O)c3ccc(OC)c(OC)c3)CC2)cc1,i
O=C(CSc1nnc(-c2ccc([N+](=O)[O-])cc2)n1-c1ccccc1)Nc1ccccc1Cl,i
CNS(=O)(=O)c1cc(-c2nnc(N3CCOCC3)c3ccccc23)ccc1C,i
CCc1ccc(OCC(=O)Nc2nccs2)c(Br)c1,i
Cn1c(=O)c2cn3c4ccccc4ncc3c2n(C)c1=O,4%
CCOc1ccc(NC(=O)c2ccc(NS(=O)(=O)c3cccc(C(F)(F)F)c3)cc2)cc1,i
CCC(C(=O)Nc1ccc(Cl)cc1C)c1ccccc1 (stereo not given),i
Cc1cc(OCCNCCN)cc(C(C)C)c1,i
COc1cccc(COc2ccc3c(C)c(CCC(=O)O)c(=O)oc3c2)c1,i

Structural class, the entries above containing a furan ring, fused or not
molecule,Mtb growth
CC(=O)N1CCN(Cc2nc3cc(NC(=O)c4ccco4)ccc3n2C)CC1,5%
CC1=C(C(=O)Nc2cc(C(F)(F)F)ccc2Cl)C(c2ccco2)C(C#N)=C(SCC(N)=O)N1 (stereo not given),i
NC(=O)c1sc2nc3c(c(-c4ccco4)c2c1N)CCC3,i
COC(=O)c1c(C)oc2ccc(OCC=C(C)C)cc12,i

(more compounds)
molecule,Mtb growth
CCn1cc(NC(=S)Nc2cc(Cl)ccc2OC)c(C(N)=O)n1,i
CCN1CCN(C(=O)c2c(NC(=O)c3ccccc3)sc3c2CCCC3)CC1,1%
O=C(CCSc1ccccc1)N1CCCc2ccccc21,i
Cc1ccc(-n2c(-c3ccc(Cl)cc3)n[nH]c2=S)cc1C,i
N#Cc1cc2c(nc1SCc1ccc([N+](=O)[O-])cc1)C1CCN2CC1,6%
Cc1ccc(C(=O)Nc2cccc(C)c2C)cc1Br,i
O=c1c2ccccc2c2ccccc2c(=O)n1-c1ccc2ccccc2c1,?
O=C(CN1C(=O)C(=O)c2ccccc21)OCc1ccc2nonc2c1,i
O=S(=O)(NCc1ccccc1)N1CCOCC1,i
S=C(Nc1ccc(Oc2ccccc2)cc1)Nc1ccc2c(c1)OCO2,46%
Cc1ccc(S(=O)(=O)N2C(=O)CCC2C(=O)Nc2ccc(C)cc2[N+](=O)[O-])cc1 (stereo not given),i
CC(=O)c1ccc(NC(=S)NC(=O)C2CCCCC2)cc1,i
Cc1cccc(NC(=O)c2ccccc2NC(=O)c2ccccc2I)c1,i
O=C1CC(c2ccc(F)cc2)c2c(ccc3ccccc23)N1 (stereo not given),i
CCOC(=O)C1=C(C)OC(N)=C(C#N)C1c1c(C)cc(C)cc1C (stereo not given),1%

Some of the entries above in a different format.
> O=c1c2ccccc2c2ccccc2c(=O)n1-c1ccc2ccccc2c1
  Mtb growth: ?

> N#Cc1cc2c(nc1SCc1ccc([N+](=O)[O-])cc1)C1CCN2CC1
  Mtb growth: 6%

> O=C1CC(c2ccc(F)cc2)c2c(ccc3ccccc23)N1 (stereo not given)
  Mtb growth: i

> CCn1cc(NC(=S)Nc2cc(Cl)ccc2OC)c(C(N)=O)n1
  Mtb growth: i

Carrying on:
| Structure | Mtb growth |
| --- | --- |
| O=C(O)COc1ccc(Br)cc1Cl | i |
| C=CCNC(=O)CSCc1ccc(C)cc1 | 5% |
| O=C(CN1C(=O)c2ccccc2C1=O)Nc1ccc(Cl)cc1C(F)(F)F | i |
| N#C/C(=C/c1cccn1-c1cccc(C(=O)O)c1)c1nc2ccccc2[nH]1 | i |
| COc1cc(NC(=O)c2cc3cccc(OC)c3oc2=O)c(OC)cc1Cl | i |
| Nc1nonc1-c1nc2ccccc2n1CC(=O)NCc1ccco1 | i |
| Cc1ccc(C2Nc3ccccc3NC3=C2C(=O)CC(c2ccccc2Cl)C3)o1 (stereo not given) | i |
| CCOc1ccc(-c2nc(C#N)c(NCc3ccccc3)o2)cc1 | i |
| CCNC(=O)c1ccc(CN(c2cc(Cl)ccc2C)S(=O)(=O)c2ccccc2)cc1 | i |
| COc1ccc(N2CCN(c3nc(NCCO)nc(N4CCOCC4)n3)CC2)cc1 | i |
| CCOc1ccc(N(CC(=O)Nc2ccc(F)cc2F)S(C)(=O)=O)cc1 | i |
| O=c1oc2ccc(Br)cc2cc1-c1csc(-c2cc3ccccc3oc2=O)n1 | i |
| Cc1ccc(Cc2c(C)nc(Nc3nc(C)c4ccc(C)cc4n3)[nH]c2=O)cc1 | 12% |
| O=C(c1cc(-c2ccccc2)nc2ccc(Br)cc12)N1CCc2ccccc21 | i |
| O=C(NCCN1CCN(Cc2ccccc2Cl)CC1)Nc1ccccc1 | i |
| COc1ccc(OCC(O)Cn2c(=N)n(CCN3CCOCC3)c3ccccc32)cc1 (stereo not given) | i |
| CC(=O)c1ccc(OC(=O)c2ccccc2C)cc1 | i |
| COc1ccc(-c2noc(CSc3nc4ccc(C)cc4[nH]3)n2)cc1 | i |
| CC(C)OCCCNC(=O)C(C)N(c1ccc(Oc2ccccc2)cc1)S(C)(=O)=O (stereo not given) | i |
| Cc1c(C(C)C)c(=O)oc2cc(OC(C)C(=O)c3ccccc3)ccc12 (stereo not given) | 16% |
| CSc1nnc(-c2ccccc2)n1-c1ccccc1 | i |
| CSc1cccc(NC(=O)c2ccccc2N(C)S(=O)(=O)c2ccccc2)c1 | i |
| CSc1nc2ccccc2n1Cc1c(Cl)cccc1Cl | 4% |
| COC(=O)c1sccc1NC(=O)C1C2C=CC(O2)C1C(=O)O (stereo not given) | i |
| CCOC(=O)c1ccc(NS(=O)(=O)c2cccc(C(=O)N3CCCc4ccccc43)c2)cc1 | i |
| CC(=O)c1ccccc1OCc1nnc(-c2ccccc2)o1 | 2% |
| CC(C)(C)NC(=O)c1ccc(-c2ccccc2)cc1 | i |
| Cc1ccccc1NC(=O)NC1CCS(=O)(=O)C1 (stereo not given) | i |
| Cc1ccc(Cl)cc1N(CC(=O)Nc1ccc(C(F)(F)F)cc1)S(C)(=O)=O | 47% |
| CCCc1cc(=O)[nH]c(SCC(=O)Nc2cccc(C(C)=O)c2)n1 | i |
| COCCN1C(=O)/C(=C\c2cccs2)SC1=S | i |
| CCn1cc(Br)c(C(=O)N2CCN(c3ccccc3)CC2)n1 | i |
| COc1cc(NS(=O)(=O)c2ccc(NC(=O)CSc3nc(N)cc(N)n3)cc2)nc(OC)n1 | i |
| CCC(=O)Nc1cc(OC)ccc1OC | i |
| O=C(CN1C(=O)c2ccccc2C1=O)OCc1ccc(S(=O)(=O)c2ccccc2)cc1 | i |
| C=CCn1c(=N)n(CC(O)COc2ccc(C)cc2)c2ccccc21 (stereo not given) | i |
| O=S(=O)(Nc1ccc(F)cc1)c1cccc(C(F)(F)F)c1 | i |
| COc1ccc(Cl)cc1NC(=O)c1oc2ccc(C)cc2c1C | i |
| CCOc1ccccc1C1CC(=O)Nc2cc(OC)c(OC)cc21 (stereo not given) | 0% |
| O=C(CSc1ccc2ccccc2n1)Nc1ccnc2ccccc12 | ? |
| Cc1cccc(OCC(=O)Nc2ccc(Cl)cc2Cl)c1 | i |
| O=C(NCCCn1ccnc1)c1sc2cccc(F)c2c1Cl | i |
| N#CC1=C(N)NC(=S)C(C(N)=O)C1c1ccc(Cl)cc1Cl (stereo not given) | i |
| COc1ccc(NC(=O)C2CC(=O)N(c3cc(C)ccc3C)C2)cc1 (stereo not given) | i |
| COc1cc(NC(=S)NC(=O)c2ccccc2)ccc1NC(=O)c1ccccc1Cl | i |
| Cc1cc(Cl)ccc1OC(C)C(=O)Nc1sc(C)c(C)c1C(N)=O (stereo not given) | i |
| Cc1cc(C)c(S(=O)(=O)N(C)CC(=O)Nc2ccc(F)c(Cl)c2)c(C)c1 | i |
| O=S(=O)(Nc1ncccn1)c1ccc(NC(=S)NCCC(c2ccccc2)c2ccccc2)cc1 | i |
| CCOC(=O)N1CCN(C(=S)Nc2ccc(C)cc2C)CC1 | 2% |
| Cc1cc(NC(=O)c2ccc(-c3ccccc3[N+](=O)[O-])o2)ccc1Br | 23% |

Other results
| Structure | Mtb growth |
| --- | --- |
| COc1ccc(CCNC(=S)Nc2nc3c(s2)CC(C)CC3)cc1OC (stereo not given) | i |
| Cc1n[nH]c(=S)n1-c1ccc(Cl)cc1 | 2% |
| COc1ccccc1N1CCN(C(=O)CN(c2ccccc2Br)S(C)(=O)=O)CC1 | i |
| Cc1nc(SCCOc2ccccc2)[nH]c(=O)c1C | i |
| C=CCOc1ccc(CNC(C)c2ccccc2)cc1OC (stereo not given) | i |
| N#C/C(=C/c1ccc(C#N)cc1)c1cccc(F)c1 | 2% |
| CCOc1ccc(NS(=O)(=O)c2ccc(O)c(C(N)=O)c2)cc1 | i |
| C/C=C/c1ccc(OC)c(OC(C)=O)c1 | 0% |
| COc1ccccc1NS(=O)(=O)c1ccc2c(c1)OCCO2 | i |
| CCOC(=O)c1ccc(COC(=O)c2cccc([N+](=O)[O-])c2)cc1 | 1.1µg/mL* |
| O=Cc1cn(CC(=O)N2CCCCCC2)c2ccc(Br)cc12 | i |

Compound activity: PubChem BioAssay, Southern Research Institute
